Screening data from PubChem.
Choline anaer gr – growth inhibitors of anaerobic choline-fed gram-negatives, minimal medium, absorbance; 55,000 compounds, 0.2% hits; calls only; AID 1963822, 2024; Gram-negative bacterium anaerobic choline minimal medium; active compounds read low; many inactives read as strong as hits in the columns shown;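 active = growth z-score on choline under -2 at 7 or 20 h with little or no fall on glycerol, limits in tiers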;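 note: stock transfer was 300 nL into about 50 µL; the organism is E. coli; final concentration not given here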
Choline anaer gr early – recorded beside Choline anaer gr, whose call it bears; z-score; measured here: choline growth z-score, timepoint 1;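 score of optical density at 7 h as mean of two plates; lower means less growth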
An asterisk follows results filed as active; i = inactive; & = joins results of further samples. Not all compounds are listed; count on the stated rates, not on these rows.

Results follow in this order: Choline anaer gr | Choline anaer gr early
> O=c1c2[nH]c3ccc(F)cc3c2ncn1Cc1ccccc1Cl
→ i | 0.62
> O=S(=O)(c1ccc(F)cc1)N1CCn2cccc2C1c1ccccc1F (stereo not given)
→ i | 0.01
> CCc1cc(C2CCCN2S(=O)(=O)c2ccc(OC)cc2)on1 (stereo not given)
→ i | -0.69
> O=C(Nc1nc2ccccc2s1)NC1CC(=O)N(c2cccc(F)c2)C1 (stereo not given)
→ i | 1.1
> O=c1c(S(=O)(=O)c2cccc(F)c2)c[nH]c2c(F)c(Cl)ccc12
→ i | -0.65
> COc1cc(OC)c(NC(=O)c2c(-c3ccc(C)cc3)nnc3ccccc23)cc1Cl
→ i | 0.41
> CN(C)c1cc(N2CCCC(NS(=O)(=O)C3CC3)C2)ncn1 (stereo not given)
→ i | 0.67
> CS(=O)(=O)Nc1c(O)ccc2c1CCCC2C1=NCCN1 (stereo not given)
→ i | 0.67
> Cc1ccc(C)c(NC(=O)N2Cc3c(sc4c3CCN(C)C4)-n3cccc3C2c2ccc(F)cc2)c1 (stereo not given)
→ i | 0.16
> CN1CCN(C(=O)c2cc(-c3cccnc3)on2)CC1
→ i | -1.1
> O=S(=O)(c1ccc(-c2nnc(C3CCC3)o2)s1)N1CCOCC1
→ i | 0.14
> CCCNC(=O)c1ccc2c(=O)n(-c3cccc(OC)c3)c(SCC(=O)c3c(C)[nH]c4ccccc34)nc2c1
→ i | -0.17
> COCC(=O)N1CCc2c([nH]c3ccc(OC)cc23)C1c1ccc(F)cc1 (stereo not given)
→ i | -0.71
> CC1(C(=O)NCc2ccc(Cl)cc2)Cn2c(cc3ccsc32)C(=O)N1C1CC1 (stereo not given)
→ i | 1.7
> CN(C)C(=O)c1cc2c(s1)CCC(C(=O)Nc1ccc3c(c1)OCO3)C2 (stereo not given)
→ i | 1.3
> O=C(NCc1nnc(C(=O)Nc2cccc(Cl)c2)s1)c1cc2ccccc2[nH]1
→ i | 0.7
> Cc1ccc(NC(=O)c2nn(C)c3c2COc2ccccc2-3)c(Br)c1
→ i | 0.65
> O=C(NC1CC1)c1ccc(-c2nc(-c3ccccc3)no2)cc1
→ i | -1.5
> CCCCCNC(=O)c1ccc(Sc2ccc(NS(=O)(=O)c3cccc(OC)c3)cc2)nc1
→ i | -0.93
> O=C1CN(Cc2ccc(Cl)cc2)S(=O)(=O)c2ccccc2N1Cc1ccc(Cl)cc1
→ i | 0.64
> O=C(Cn1ccc2cc(S(=O)(=O)N3CCCC3)ccc21)NC1CCCC1
→ i | -0.15
> C#C[C@]1(O)CCC2C3CCc4cc(OC)ccc4C3CC[C@@]21C (stereo not given in full)
→ i | 0.37
> Cc1nn(Cc2noc(-c3ccccc3F)n2)c(C)c1S(=O)(=O)N1CCCC1
→ i | 0.86
> CCN(CC)CCNC(=O)Cn1nc(N2CCN(c3ccccc3)CC2)ccc1=O
→ i | -0.32
> CC(C)CCNC(=O)C1c2c(n(C)c3ccccc23)SCC(=O)N1CCC(C)C (stereo not given)
→ i | 0.66
> Nc1nc(-c2ccccc2)nn1C(=O)C(c1ccccc1)c1ccccc1
→ i | 3.1
> O=C(CN1N=C(c2ccccc2F)c2cc(Cl)ccc2S1(=O)=O)NCc1ccc(F)cc1
→ i | 0.96
> CC1=Nn2c(nnc2-c2ccc(Cl)cc2)SC1
→ i | 0.25
> O=C(CCc1nc(CSc2nnc(-c3ccccc3)o2)no1)Nc1ccc(Br)cc1
→ i | 0.47
> O=C(CSc1nnc2ccc(C(=O)Nc3cccc(F)c3)cn12)Nc1ccc2c(c1)OCO2
→ i | 0.26
> CCn1cc(CNC(=O)c2cnn3c(C(F)F)cc(-c4ccccc4)nc23)c(C)n1
→ i | -0.52
> CCCCN1CCN(S(=O)(=O)c2cc(-c3nc(C)c(C)s3)cs2)CC1
→ i | -1.4
> COC(=O)c1c(NC(=O)N2CCCC2c2ccc(F)cc2)sc2c1CCCC2 (stereo not given)
→ i | 0.25
> CCn1c(C)c(-c2nc(C3CC3)no2)c(S(=O)(=O)N2CCN(C)CC2)c1C
→ i | 0.84
> O=C(Cn1cc(-c2nnc(CN3CCCCC3)o2)c2ccccc21)NCCCc1ccccc1
→ i | -0.04
> CC1CN(C(=O)Nc2ccc(C(=O)NCc3ccc(F)cc3)cc2)c2ccccc2S1 (stereo not given)
→ i | -0.75
> Cc1c(CCNC(=O)c2ccc3c(c2)OCO3)sc2nc(-c3ccc(F)cc3)nn12
→ i | 1.3
> Cc1nnc2ccc(-n3ncc4c3NC(=O)CC4c3ccc(OCc4ccccc4Cl)cc3)nn12 (stereo not given)
→ i | -0.2
> CCc1nc(CN2C(=O)COc3ccc(S(=O)(=O)NC4CCCC4)cc32)no1
→ i | 0.32
> Cc1nn(C)c(C)c1CCN(C)S(=O)(=O)c1ccc(Cl)s1
→ i | 0.99
> O=C(NC1CC1)c1cnn2c3c(cnc12)CCCCCC3
→ i | -1.3
> Cc1ccc(-c2nc(CS(=O)(=O)CC(=O)N3CCN(c4ccccc4)CC3)c(C)o2)cc1
→ i | -1.2
> Cc1ccc(N2C(=O)c3cc(C)nn3CC2(C)C(=O)NCc2ccc(F)cc2)cc1 (stereo not given)
→ i | 0.38
> COc1ccc(OC)c(NC(=O)NCCN2CCc3ccccc3C2)c1
→ i | -1.1
> CCn1c(=O)c(N2CCN(C(=O)C3CCCC3)CC2)nc2ccccc21
→ i | -0.22
> CC(C)Cc1cc(-c2nn3c(CSc4ccccc4)nnc3s2)n[nH]1
→ i | 0.23
> Cn1c(=O)n(Cc2ccccn2)c(=O)c2cnc(-c3ccc(Cl)cc3)nc21
→ i | 0.04
> Cc1cccc(-c2nnc(SCc3cc(=O)n4nc(C)sc4n3)o2)c1
→ i | 0.62
> COCCCNC(=O)CCc1nc2sc3c(c2c(=O)[nH]1)CCCCC3
→ i | -0.49
> CC1CCN(S(=O)(=O)c2ccc3nn(CCOc4ccc(F)cc4)c(=O)n3c2)CC1
→ i | 1.2

Further results follow.
Results follow in this order: Choline anaer gr | Choline anaer gr early
> COc1ccccc1NC(=O)C1=C(O)c2ccccc2N(Cc2ccc(Cl)cc2)S1(=O)=O
→ i | -0.9
> O=C(c1cccc(F)c1)N1CCN(Cc2cc(=O)n3nc(-c4cccc(Cl)c4)sc3n2)CC1
→ i | -0.39
> CCOc1ccc(NC(=O)c2cc(S(=O)(=O)N3CCCC(C)C3)cn2C)cc1 (stereo not given)
→ i | 0.97
> CN(C)S(=O)(=O)c1ccc2c(c1)c(C(=O)O)cn2C
→ i | 0.13
> CC1(C(=O)NC2CCCC2)Cn2c(cc3sccc32)C(=O)N1CCc1ccc(Cl)cc1 (stereo not given)
→ i | -1
> COc1cc(CN2CCCC2c2cc(C(C)C)on2)ccc1O (stereo not given)
→ i | -0.17
> Cc1ccc(C)c(N2CCN(C(=O)C3CCCN(c4nc5cccnc5s4)C3)CC2)c1 (stereo not given)
→ i | 0.02
> NS(=O)(=O)c1ccc(CCNC(=O)C2CCCN(S(=O)(=O)c3cnc[nH]3)C2)cc1 (stereo not given)
→ i | 0.04
> CC(C)(C)c1nnc2sc(SCC(=O)NC3CCCCC3)nn2c1=O
→ i | 0.49
> COc1cc(OC)cc(-n2nnc(-c3nsc(Nc4ccccc4OC)n3)c2C)c1
→ i | 1.7
> Cc1ccc(N2C(=O)C3N=NN(CC(=O)Nc4ccc(F)cc4)C3C2=O)cc1C (stereo not given)
→ i | 0.66
> O=C(CCc1nc(CN2CCN(C(=O)c3ccc(Cl)cc3)CC2)no1)N1CCOCC1
→ i | 0.22
> CCS(=O)(=O)Nc1cccc(C2=NN(S(C)(=O)=O)C(c3ccccc3F)C2)c1 (stereo not given)
→ i | 1
> Cc1ccc(-c2noc(CCC(=O)N(C)C)n2)c(=O)n1C(C)C
→ i | -0.21
> Cc1ccc2c(=O)c(C(=O)c3cccc(Cl)c3)cn(CC(=O)NCC3CCCO3)c2n1 (stereo not given)
→ i | 2.7
> CC(C)Cc1nnc(C(=O)Nc2ccc(C(=O)N3CCN(c4ccccn4)CC3)cc2)s1
→ i | -0.38
> Cn1c(SCC(=O)Nc2ccccc2O)nnc1-c1cc2ccccc2o1
→ i | -2.1
> Cc1cc(C)c2oc(C(=O)NCC(c3ccc(C(C)(C)C)cc3)N(C)C)cc(=O)c2c1 (stereo not given)
→ i | 1.3
> CCn1c(CCc2cccc(NS(=O)(=O)c3ccccc3C)c2)nc2ccccc21
→ i | 0.59
> CCC(=O)N1CCN=C1N1CCC(C)CC1
→ i | -0.42

Some of the entries so far, field by field:
compound: Cc1ccc(-c2noc(CCC(=O)N(C)C)n2)c(=O)n1C(C)C
  Choline anaer gr = i; Choline anaer gr early = -0.21

compound: Cc1ccc2c(=O)c(C(=O)c3cccc(Cl)c3)cn(CC(=O)NCC3CCCO3)c2n1 (stereo not given)
  Choline anaer gr = i; Choline anaer gr early = 2.7

compound: CC(C)Cc1nnc(C(=O)Nc2ccc(C(=O)N3CCN(c4ccccn4)CC3)cc2)s1
  Choline anaer gr = i; Choline anaer gr early = -0.38

compound: Cn1c(SCC(=O)Nc2ccccc2O)nnc1-c1cc2ccccc2o1
  Choline anaer gr = i; Choline anaer gr early = -2.1

(list continues)
Results follow in this order: Choline anaer gr | Choline anaer gr early
> CN(C)S(=O)(=O)c1ccc2c(c1)N(CC(=O)N1CCN(c3ccccn3)CC1)CCS2
→ i | 0.04
> Cn1c(=O)n(C)c2cc(CNCCNC(=O)c3nonc3N)ccc21
→ i | 1.3
> Cc1cc(C(=O)NCCCN2CCCC2)c2c(=O)n(C)c(=O)n(C)c2n1
→ i | -0.1
> COc1cccc(-n2c(=S)sc3c(=O)n4[nH]c(=O)c5ccccc5c4nc32)c1
→ i | -0.35
> OCCNc1nc(Nc2cccc(F)c2)c2cnn(-c3ccccc3)c2n1
→ i | 1.1
> O=C(c1cc2nc(C3CC3)cc(C(F)(F)F)n2n1)N1CCCC1c1ccc(Cl)cc1 (stereo not given)
→ i | -0.19
> CN(C)c1cccc(C(=O)NCc2ccc3c(c2)N(C(=O)c2ccccc2)CC3)c1
→ i | 1
> O=C(Nc1ccc(Oc2nc3ccccc3n3cnnc23)cc1)c1ccccc1
→ i | -1.3
> O=c1[nH]ccc2c(S(=O)(=O)N3CCCNCC3)cccc12
→ i | 0.53
> Cc1ccc(-c2csc(NC(=O)c3ccccc3)n2)c(C)c1
→ i | 0.57
> O=C1C2N=NN(Cc3ccccc3F)C2C(=O)N1c1ccc(F)cc1 (stereo not given)
→ i | 1.1
> CCC(Sc1nccn(-c2cccc(C)c2)c1=O)C(=O)Nc1cc(C)ccc1C (stereo not given)
→ i | 0.65
> CN1CCC(=C2c3ccccc3CCc3cccnc32)CC1
→ i | 0.54&-0.15&-0.03
> Cc1ccc(S(=O)(=O)c2cnc(N3CCN(c4cccc(Cl)c4)CC3)nc2N)cc1
→ i | 1.1
> O=C(Nc1ccc(F)cc1)C1CCCN(c2ccc3cc(S(=O)(=O)N4CCCCC4)ccc3n2)C1 (stereo not given)
→ i | -0.89
> C[C@H](Cn1cnc2c(N)ncnc21)OCP(=O)(O)O
→ i | 0.25
> Cc1ccc2[nH]c3c(=O)n(CCC(=O)NCCc4c[nH]c5ccccc45)cnc3c2c1
→ i | 0.85
> Cc1nc2nc(NCc3ccccc3)[nH]n2c(=O)c1CCC(=O)NC(C)C
→ i | -0.03
> CCOC(=O)c1c(-c2ccc(C)cc2)csc1NC(=O)Cc1coc2cc(C)ccc12
→ i | 0.11
> CCOc1ccc(NS(=O)(=O)c2ccccc2-c2nc(-c3ccc(F)cc3)no2)cc1
→ i | 0.77
> COCC(=O)NCc1nc2cccnc2n1Cc1ccc(F)cc1
→ i | -0.67
> COc1cccc(CCNC(=O)Cn2c(=O)c(=O)n(C)c3ccccc32)c1
→ i | -1.5
> O=S(=O)(c1ccc(F)c(F)c1)N1CCC2(CC1)Nc1ccc(Cl)cc1-n1cccc12
→ i | -0.28
> COC(=O)c1sccc1NC(=O)N1CCCC1c1cc(C)on1 (stereo not given)
→ i | 0.92
> CCOc1ccc(NS(=O)(=O)c2cc(-c3ccc4nnc(C)n4n3)ccc2C)cc1
→ i | 0.36
> CCCCNC(=O)CN1CCN(C(=O)c2sc3ncccc3c2-n2cccc2)CC1
→ i | -0.24
> c1ccc(OCCCn2c(COc3ccccc3)nc3ccccc32)cc1
→ i | 2.6
> COc1ccccc1NC(=O)N1CCN(Cc2nc3cc(C(=O)N4CCCC4)ccc3n2C)CC1
→ i | -0.22
> C=C1C[C@H](O)[C@H](C/C=C\CCCC(=O)O)[C@H]1/C=C/C(=O)CCCCC
→ i | -0.24
> O=C(CSc1nc2ccccc2n2cnnc12)NC1CCCC1
→ i | 0.22
> Cc1ccc(CNC(=O)C2CCN(c3nccn4nc(-c5ccc(Cl)cc5)cc34)CC2)cc1
→ i | 0.77
> CCOC(=O)CS(=O)(=O)c1cc2c(cc1NC(=O)CC(C)C)n(C)c(=O)c(=O)n2C
→ i | 0.49
> COc1ccccc1CNC(=O)c1cc(C)nc2c1c(C)nn2-c1ccc(C)c(C)c1
→ i | 0.24
> Cc1nc2ccccc2c2c1C(=O)N(c1ccccc1)C2=O
→ i | 0.85
> Cn1c(=O)[nH]c(=O)c2c1nc(Sc1nc3ccccc3[nH]1)n2Cc1ccccc1Cl
→ i | 1.5
> Cc1cc(NC(=O)C2CCN(C(=O)c3cccn3-c3cccnc3)CC2)ccc1Br
→ i | -0.22
> COc1ccc(CCNC(=O)c2c(-c3ccccc3)c(-c3ccccc3)n[nH]c2=O)cc1OC
→ i | 1
> O=S(=O)(c1ccc(Br)cc1)N1CCC(n2cnc3cccnc32)CC1
→ i | -0.05
> Cc1ccc(-c2csc(NC(=O)c3sc(COc4cccc(C)c4)nc3C)n2)cc1
→ i | 1.6
> O=C(C1Nc2ccccc2S(=O)(=O)N1)N1CCN(c2ccc(Cl)cc2)CC1 (stereo not given)
→ i | 0.74
